T cruzi inh: inhibitors of intracellular T. cruzi growth, primary screen, luminescence, NIH3T3 host cells | T. cruzi beta-gal in NIH3T3, 90 h | inhibition, % (concentration not given with the values) | 300,000 compounds, 1.4% hits | AID 1885, 2009;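 active = mean inhibition across valid replicates above about 55%, limit read from the data; inconclusive = mean below that limit but half or more replicates reach it; inactive = mean below it, under half of replicates reach it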;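 also: signal also drops with host cell toxicity which is not excluded here; 0% = plate median of DMSO wells and 100% = zero luminescence signal; higher percent means less beta-gal luminescence so fewer parasites; stock transfer was 50 nL into about 50 µL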
UCH37 inh: inhibitors of human UCH37 deubiquitinase, primary screen, biochemical, Ub-AMC cleavage, fluorescence; 330,000 compounds, 0.33% hits; AID 588478, 2011; purified proteasome/UCH37; inhibition, % (test concentration not listed); Ubiquitin carboxyl-terminal hydrolase isozyme L5 (Homo sapiens), Q9Y5K5;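 active = mean of two replicates above 20%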;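 also: 0% = compound-free wells with enzyme and 100% = wells lacking proteasome; stock transfer was 100 nL into about 20 µL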
Target sequence (Q9Y5K5 whole entry, looked up): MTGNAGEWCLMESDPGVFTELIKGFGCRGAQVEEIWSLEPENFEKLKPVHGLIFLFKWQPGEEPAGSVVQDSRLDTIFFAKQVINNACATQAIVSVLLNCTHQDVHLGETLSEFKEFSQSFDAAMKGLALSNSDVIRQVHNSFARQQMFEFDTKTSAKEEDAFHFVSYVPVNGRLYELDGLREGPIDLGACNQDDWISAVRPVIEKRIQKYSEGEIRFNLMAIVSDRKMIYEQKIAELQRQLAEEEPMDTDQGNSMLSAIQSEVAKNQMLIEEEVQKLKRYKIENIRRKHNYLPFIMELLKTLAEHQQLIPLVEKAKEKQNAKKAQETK
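assay system = human UCH37 enzyme supplied as purified proteasome complex | amount = proteasome at 0.15 nM in the dispensed enzyme solution | schedule = 30 min compound-proteasome preincubation then 25 min substrate reaction, room temperature | measured by = fluorescence, ex 355 nm, em 460 nm | benchmarks = no-proteasome wells (full inhibition) and compound-free wells (no inhibition)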
E coli growth: E. coli growth inhibition, primary screen, OD600. Escherichia coli growth, 23 h; active compounds read low. OD600 absorbance (test concentration not listed). 330,000 compounds, 0.21% hits;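 active = OD600 absorbance below the run mean of sample wells minus 3.6 SD, in any replicate, cut at about 0.56 in these data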;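 also: stock transfer was 300 nL into about 60 µL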
Ecoli rRNA inh: reduced GFP signal of wild-type E. coli, primary screen, bacterial rRNA inhibitor project, GFP/RFP fluorescence, OD600, single point; E. coli WT GFP vs humanized-ribosome RFP mutants, 24 h; active compounds read low; DMSO median 0, no signal -100; GFP signal change (wild-type ribosome), % (no concentration beside the values); 350,000 compounds, 1.6% hits;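 active = significant combined selectivity score with lowered wild-type GFP, culture density cut under 30%, mutant RFP and density less affected; inactive = any of these conditions unmet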; also: one replicate is shown; some compounds called inactive have numbers as strong as hits
Bfl-1 A1 inh: caspase 3/7 activation in MEF A1-2A-BIM cells, primary screen, A1 inhibitor project, cell-based, luminescence, HTS. Caspase-Glo 3/7 luminescence, 3 h; percent of clofoctol response, vehicle zero. caspase activation, % (no concentration beside the values). 330,000 compounds, 0.066% hits;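 active = over half of replicate activation scores above 10%, or exactly half above 10 with the replicate mean above 10; inconclusive = replicate mean below 10 yet half the replicates above 10; inactive = over half of replicates below 10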;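 also: wells of about 30 µL received 50 nL stock; many hits fall short of the cut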
FGF22 binding: binders of human FGF22 protein, primary screen, FGF22 synaptogenesis inhibitor project, biophysical, thermal shift, single point; 340,000 compounds, 1.5% hits; recombinant FGF22 thermal shift, SYPRO orange fluorescence; percent of sucrose octasulfate shift, DMSO zero; Fibroblast growth factor 22 (Homo sapiens), Q9HCT0; calls only at 9.99 µM;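 active = melting point raised past a set limit in the mean and every replicate; inconclusive = no clear call; three in four hits are not shown here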
Target sequence (Q9HCT0 whole entry, looked up): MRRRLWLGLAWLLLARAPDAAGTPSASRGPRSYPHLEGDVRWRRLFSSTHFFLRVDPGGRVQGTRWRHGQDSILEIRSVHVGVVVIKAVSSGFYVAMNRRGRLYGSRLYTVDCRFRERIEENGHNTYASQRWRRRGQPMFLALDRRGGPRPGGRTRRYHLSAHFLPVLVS
AF4-AF9 inh: inhibitors of AF4 peptide binding to AF9, primary screen, biochemical, AlphaScreen, biotin-AF4 peptide, FLAG-AF9, single point | Protein AF-9 (Homo sapiens), P42568 | inhibition, % at 10 µM | 350,000 compounds, 0.47% hits | AID 651704, 2012;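 active = every replicate reaching a set inhibition limit, whatever the replicate mean, cut at about 25% in these data; inconclusive = mean inhibition reaches that limit but some replicates miss it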;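 also: 0% = plate neutral control median and 100% = total signal loss; the record names both 10 and 1 µM as test concentration; the first replicate is given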
Target sequence (P42568 whole entry, looked up): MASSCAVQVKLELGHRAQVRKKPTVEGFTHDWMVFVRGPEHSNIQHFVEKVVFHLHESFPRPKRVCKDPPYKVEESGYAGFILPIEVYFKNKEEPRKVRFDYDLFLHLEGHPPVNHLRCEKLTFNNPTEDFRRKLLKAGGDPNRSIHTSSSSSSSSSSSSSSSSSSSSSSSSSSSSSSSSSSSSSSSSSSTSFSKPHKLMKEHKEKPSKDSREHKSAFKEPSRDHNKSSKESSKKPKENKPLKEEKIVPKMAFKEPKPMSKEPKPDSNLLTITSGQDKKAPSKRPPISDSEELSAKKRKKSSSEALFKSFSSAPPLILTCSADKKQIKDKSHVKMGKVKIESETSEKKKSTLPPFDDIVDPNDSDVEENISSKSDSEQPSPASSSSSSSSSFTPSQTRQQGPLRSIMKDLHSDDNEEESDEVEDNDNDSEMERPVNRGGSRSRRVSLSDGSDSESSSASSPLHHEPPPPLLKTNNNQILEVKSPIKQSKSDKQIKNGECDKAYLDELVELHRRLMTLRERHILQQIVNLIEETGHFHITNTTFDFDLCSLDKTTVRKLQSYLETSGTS
Beta cell apopt: inhibitors of cytokine-induced beta cell apoptosis, primary screen, luminescence | INS-1E cytokine-induced death, ATP luminescence, 48 h; percent of positive-control rescue, neutral wells zero | 300,000 compounds, 0.8% hits | protection from apoptosis, % (no concentration beside the values);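 active = all replicates at 75% or more, or half of them and the mean; inconclusive = half reach 75% but not the mean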;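 also: 0% = cytokine-treated negative control wells and 100% = positive control rescue; higher means more ATP so stronger rescue from cytokine killing; wells of about 40 µL received 100 nL stock; the first replicate is given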
Ecoli rRNA inh OD600: further read-out of Ecoli rRNA inh, marked with its call; OD600 change, %; measured here: OD600 growth;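 optical density of the mix in the first replicate; 0 = DMSO median and -100 = no signal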
Ecoli rRNA inh RFP: further read-out of Ecoli rRNA inh, marked with its call; RFP signal change, %; measured here: RFP humanized mutant strains;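 first replicate; 0 = DMSO median and -100 = no signal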
Numbers without * were called inactive; i = inactive; ? = inconclusive; . = not tested or not shown; + = active, no number; & = joins results of further samples. Not all compounds are listed; count on the stated rates, not on these rows.

SMILES	T cruzi inh	UCH37 inh	E coli growth	Ecoli rRNA inh	Ecoli rRNA inh OD600	Ecoli rRNA inh RFP	Bfl-1 A1 inh	FGF22 binding	AF4-AF9 inh	Beta cell apopt
Cn1c(=O)c2c(ncn2CC(=O)N2CCN(c3ccc(F)cc3)CC2)n(C)c1=O	13	3.7	0.74	.	.	.	1.5	.	.	-2
Cc1ccc2cc(CN(CC3CCCO3)C(=O)C(C)C)c(=O)[nH]c2c1 (centres undefined)	-15	-2.0	0.69	.	.	.	-0.8	.	.	-2
Brc1ccc(-c2ccc(/C=N/Nc3nc4ccccc4[nH]3)o2)cc1	62*	.	.	-51	-70	-9.7	-0.7	i	7.2	23
Cc1ccc(C(OC(=O)c2ccco2)C(=O)NC2CCCC2)cc1 (centres undefined)	-3	4.6	0.69	10	7	0.7	-0.1	i	-5.0	-3
COc1ccc(C(=O)Nc2nc(CC(=O)NCCc3ccccc3)cs2)cc1	-10	-1.0	0.65	-14	-14	3.0	0.0	+	-0.2	-1
CCOC(=O)/C=C1\SCC(=O)N1Cc1nnc(-c2ccccc2Br)o1	13	3.0	0.74	.	.	.	0.5	.	.	3
COCCNC(=O)Cn1cnc([N+](=O)[O-])n1	7	.	.	17	9	-2.9	-0.6	.	-1.1	3
COc1ccc(-c2nonc2NC(=O)c2oc3ccccc3c2C)cc1OC	-4	2.4	0.64	14	14	-1.4	-0.4	i	1.6	3
COc1ccc(C/C(N)=N/OC(=O)Cc2ccc(OC)c(OC)c2)cc1	-3	1.6	0.7	-3	0	-0.8	0.0	i	-3.1	-4
COCc1ccc(C(=O)NC2CCCc3c2cnn3-c2ccc(C)c(C)c2)o1 (centres undefined)	6	6.0	0.65	-3	-24	0.4	1.5	i	0.8	.
CCOC(=O)c1cccc(NC(=O)C2CCCN(S(=O)(=O)c3c(C)nn(C)c3C)C2)c1 (centres undefined)	.	1.9	0.72	-2	-10	1.8	0.4	i	0.9	-3
COc1ccc(S(=O)(=O)Cc2ccc(C(=O)N3CCN(c4ccccc4)CC3)o2)cc1	10	5.9	0.73	2	-6	-0.4	?	i	1.4	.
CSc1ccc(Cl)c(C(=O)OCC(=O)N2CCN(C(=O)c3ccco3)CC2)c1	.	1.1	0.67	0	-6	-0.9	-1.2	i	0.5	0
CC(C)(C)SCCNC(=O)CSc1ccccc1	-12	5.6	0.67	.	.	.	-0.5	.	.	-3
Nn1c(SCC(=O)N2CCN(S(=O)(=O)c3ccc(Cl)cc3)CC2)nnc1-c1cccs1	0	1.6	0.66	.	.	.	0.6	.	.	0
CCCCCCSc1ccc([C@H]2N[C@@](Cc3ccccc3)(C(=O)OC)[C@H]3C(=O)N(C)C(=O)[C@@H]23)cc1	48	-1.5	.	8	2	-14	0.4	i	-1.9	99*
O=C(Nc1nc2ccccc2[nH]1)c1cc2ccccc2o1	0	-75	0.71	10	15	3.0	-6.6	i	-0.9	29
C[C@H]1CN([C@@H](C)CO)C(=O)c2cc(NC(=O)C3CCCCC3)ccc2O[C@H]1CN(C)Cc1ccc(-c2ccccc2)cc1	.	-3.2	0.77	-3&1	-3&-10	-1.1&9.0	-0.3	i	0.2&7.9	14
CC1(C)CC(C2N3CC4(C)CN2CC(C)(C3)C4=O)CCO1 (centres undefined)	8	5.4	0.68	.	.	.	0.9	.	.	-6
O=C(COC(=O)C1CCN(C(=O)Nc2ccccc2)CC1)NCC(F)(F)F	-6	1.8	0.69	8	0	-2.3	1.7	i	-1.4	0
O=C(NC1CCCCCC1)c1ccco1	-11	0.0	0.67	3	8	-2.3	1.1	i	-1.6	2
O=S(=O)(NCCC1=CCCCC1)c1ccccc1Br	.	0.8	0.65	-23	-35	-4.6	.	i	-1.5	.
COC(=O)c1sccc1NC(=O)Cc1ccc(OC)cc1	4	0.6	0.68	-27*	-9.9*	-0.3*	-4.2	i	-2.9	5
Cc1ccc(C)c(-c2nnc(NC(=O)Cc3ccc(F)cc3)o2)c1	-29	1.7	0.72	.	.	.	1.2	.	.	-2

Brought forward from above: two compounds, followed by the next part.
SMILES	T cruzi inh	UCH37 inh	E coli growth	Ecoli rRNA inh	Ecoli rRNA inh OD600	Ecoli rRNA inh RFP	Bfl-1 A1 inh	FGF22 binding	AF4-AF9 inh	Beta cell apopt
COC(=O)c1sccc1NC(=O)Cc1ccc(OC)cc1	4	0.6	0.68	-27*	-9.9*	-0.3*	-4.2	i	-2.9	5
Cc1ccc(C)c(-c2nnc(NC(=O)Cc3ccc(F)cc3)o2)c1	-29	1.7	0.72	.	.	.	1.2	.	.	-2
CCOCCn1c(SCCCc2ccccc2)nc2c1c(=O)[nH]c(=O)n2C	12	0.8	0.73	.	.	.	-0.1	.	.	3
CN1C(=O)c2ccc(NC(=O)c3c(F)c(F)c(F)c(F)c3F)cc2C1=O	-11	-57	0.73	.	.	.	0.3	.	.	-7
O=[N+]([O-])c1ccccc1/C=N\Nc1nccs1	-6	.	.	3	10	9.5	-0.6	i	-2.6	-2
CC1CCC(O)(C(C(=O)O)c2ccccc2)CC1 (centres undefined)	.	0.9	0.7	1	9	-4.7	.	i	4.6	.
Cc1nnc(SCC(=O)Nc2cc(-c3cc(C)c(C)cc3C)nn2-c2ccccc2)s1	28	3.8	0.75	-15	-16	5.2	-0.3	i	1.0	-6
CCCCCn1cnc2c(sc3nc4c(cc32)CSC(C)(C)C4)c1=O	18	0.5	0.7	.	.	.	-1.5	.	.	5
Cc1nnc(Nc2ccccc2F)s1	-14	6.0	0.64	6	-15	-2.0	-1.2	i	0.2	-2
COc1ccc(CNc2nc(-c3ccccc3)nc3ccccc23)cc1OC	22	1.1	0.65	6	-16	-7.1	-0.6	.	-2.3	-1
COc1ccc(OC)c(-c2csc(NC(=O)COC(=O)C3CC3)n2)c1	.	0.8	0.71	-18*	-4.5*	5.3*	0.1	i	0.5	-4
CN(C(=O)CSc1nnc(Cc2cccc3ccccc23)n1N)C1CCS(=O)(=O)C1 (centres undefined)	.	3.3	0.67	.	.	.	-0.7	.	.	-1
COC(=O)C1=C(C)Nc2nnnn2C1c1ccc(Cl)cc1Cl (centres undefined)	5	1.7	0.68	.	.	.	-0.5	.	.	5
O=C(O)Cc1ccc(N=Cc2c(O)ccc3ccccc23)cc1	-12	11	0.69	17	9	1.4	-0.1	i	1.4	-19
CSc1ccccc1C(=O)Nc1cc(C)cc(C)c1	4	2.2	0.66	.	.	.	1.1	.	.	4
O=C(O)C(C(O)c1ccc([N+](=O)[O-])cc1)[n+]1ccccc1 (centres undefined)	-3	-3.1	0.78	6	13	-5.4	-0.1	i	2.4	0
CCOc1ccc(/C=C/C(=O)c2c(O)c3ccccc3oc2=O)cc1	-7	-0.8	0.72	.	.	.	-0.2	.	.	-4
CC1CN(C(=O)c2cccn(Cc3c(Cl)cccc3Cl)c2=O)CC(C)O1 (centres undefined)	-2	3.1	0.73	17	11	4.8	-0.1	i	1.0	-5
CCC(c1nnnn1Cc1ccccc1)N1CCN(c2ccccc2)CC1 (centres undefined)	10	3.0	0.7	-18	-9	-6.1	-0.4	i	0.3	-8
NC(=O)c1csc(-c2ccncc2)n1	-15	2.1	0.64	.	.	.	0.5	.	.	-11
COCCn1c(SCC(=O)Nc2ccc(S(=O)(=O)N(C)C)cc2)nc2ccccc21	-1	3.2	.	.	.	.	0.3	.	.	7
CC(=O)COc1cc2c(-c3cc4ccccc4o3)cc(=O)oc2cc1C	-4	-2.1	0.72	0	14	7.8	0.0	i	-3.0	7
Cc1cc(C)cc(-n2ncc3c2CCCC3NC(=O)c2ccccc2N2CCOCC2)c1 (centres undefined)	25	4.3	0.7	-28	-58	0.7	-0.7	i	3.4	17
COc1ccc(S(=O)(=O)N2CCOC23CCN(C(=O)c2c(F)cccc2Cl)CC3)cc1	2	0.1	0.68	-8	-11	4.0	-0.5	i	-0.8	-12
COc1ccc(C(=O)N2CCC(C(=O)N3CCN(c4ccc(OC)cc4)CC3)CC2)cc1	-9	6.2	0.68	-1	-8	-2.1	-0.3	i	2.9	0
CCN1CCN(c2cc(C)c3cc(NC(=S)N4CC(C)CC(C)C4)ccc3n2)CC1 (centres undefined)	38	2.3	0.68	4	5	7.8	.	i	7.0	.
COc1ccc(CN(CCC(C)C)S(=O)(=O)c2ccccc2Br)cc1	.	2.0	0.68	-1	2	-1.0	.	i	-3.2	.
COc1ccc(N2CCN(C(=O)CCCn3c(=O)c4cccn4c4cccnc43)CC2)cc1	5	1.8	0.63	-19	-2	-2.9	-1.1	i	6.0	5
CCOC(=O)C1=C(NC(=S)NC(=O)c2ccccc2)c2ccccc2CC1(C)CC (centres undefined)	-20	4.6	0.67	.	.	.	0.4	.	.	-1
CCCn1nc(NS(=O)(=O)c2ccccc2[N+](=O)[O-])c2cc3ccccc3nc21	7	8.3	0.69	-21*	-16*	-0.2*	0.3	i	0.9	-1
CC(C)CC(CC(C)C)=NNC(=O)c1ccc(CSc2nncn2C)cc1	-12	1.6	0.71	13	-2	3.0	-0.6	i	-1.4	-7
O=C1CCC(C(=O)N2CCSCC2)CN1Cc1cccc(C(F)(F)F)c1 (centres undefined)	2	1.7	0.71	14	19	-0.9	1.1	i	-5.0	2
O=C(COc1ccc(Cl)cc1Br)N1CCN(c2ncccn2)CC1	.	0.9	0.66	-18	-21	-3.8	.	i	0.0	.
CC(=O)c1cccc(S(=O)(=O)NC2CC2)c1	-11	-4.5	0.69	.	.	.	-0.5	.	.	-5
Cc1nc(NC(=O)/C=C/c2ccccc2)sc1C(=O)N(C)C	-33	5.3	0.74	.	.	.	0.2	.	.	3
Nc1ccc(Nc2ccccc2)cc1	50	2.7	0.67	1	12	7.0	-0.8	i	1.6	78*
CC(=O)N(C1=C(Cl)C(=O)c2ccccc2C1=O)C1CCCCC1	58*	44*	0.65	-20	-39	9.3	2.3	i	15	53
COC(=O)[C@@]1(Cc2ccccc2)[C@H]2c3cc(C(=O)N4CCCC4)n(Cc4ccsc4Br)c3C[C@H]2CN1C(=O)c1ccccc1	.	.	.	5	2	-8.8	-0.8	i	6.9	-1
C=CCn1c(SC)nccc1=O	.	1.7	0.68	14	13	1.7	.	i	-1.1	.
C[C@H]1CN=C(N(C)C)N1CCCCc1ccccc1	.	2.5	0.71	10	8	-1.9	0.4	i	-13	-1
CC(C)[C@H](NC(=O)c1nn(Cc2ccccc2)c(=O)c2ccccc12)C(=O)O	-7	0.1	0.67	2	0	-2.0	0.0	i	-7.6	1
